Mtb growth – M. tuberculosis H37Rv growth inhibitors, H37Rv strain (AID 1626). hit rate 0.95% among 220,000. one-dose inhibition, % at 10 µM; IC50 in µM for titrated hits. M. tuberculosis H37Rv growth inhibition; higher % means a stronger effect;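 active = confirmed in a dose series; inconclusive = inhibition above 80% but not taken into the dose series; inactive = below 80% or under 30% at every dose of the series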;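 note: bacteria incubated seven days before Alamar blue readout; 0% = bacteria only wells and 100% = bacteria with antibiotic wells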
Arbovirus inh – arbovirus infection inhibition | arbovirus infection cell-based antiviral screen | inhibition, % at 10 µM | hit rate 0.37% among 200,000;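 active = inhibition from about 30%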;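 note: bluetongue infection of BSR cells; cell survival read as ATP light after 72 h; 0% = infected wells without compound and 100% = uninfected wells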
Mtb betalactam – beta-lactam sensitization of Mtb H37Rv | M. tuberculosis H37Rv growth with meropenem, percent inhibition; hits of this screen are not shown here | inhibition, % at 25 µM | hit rate 0.27% among 330,000 | AID 434955;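 active = about 74% or more and at least 40 points above the plate without the antibiotic, then above 30% in a dose series; inconclusive = first-round hits that could not be retested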;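 note: growth measured after seven days incubation then overnight dye step; 0% = bacteria only wells and 100% = bacteria with antibiotic; twin plates without the antibiotic show which effects depend on it; some results filed as inactive read as strong as hits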
YopH PTP inh – inhibitors of Yersinia enterocolitica YopH tyrosine phosphatase; fluorescence Ex485/Em525; inhibition, %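 (about 10 µM by stock and volumes)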; hit rate 0.16% among 140,000; AID 898;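 active = inhibition of 50% or more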;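 note: controls were vehicle for no effect and minimum signal wells for full effect; inactives centre near -20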
RecA splice inh – blocks M. tuberculosis RecA intein splicing; P9WHJ3; cell-free RecA intein splicing, fluorescence; inhibition, %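 (about 9 µM by stock and volumes)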; hit rate 0.75% among 290,000; AID 2221; in the data active = inhibition above about 30%; inconclusive = no clear call, values can overlap the other calls;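 note: 0% = vehicle wells and 100% = reference inhibitor control wells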
Target sequence (P9WHJ3 whole entry, looked up, canonical isoform): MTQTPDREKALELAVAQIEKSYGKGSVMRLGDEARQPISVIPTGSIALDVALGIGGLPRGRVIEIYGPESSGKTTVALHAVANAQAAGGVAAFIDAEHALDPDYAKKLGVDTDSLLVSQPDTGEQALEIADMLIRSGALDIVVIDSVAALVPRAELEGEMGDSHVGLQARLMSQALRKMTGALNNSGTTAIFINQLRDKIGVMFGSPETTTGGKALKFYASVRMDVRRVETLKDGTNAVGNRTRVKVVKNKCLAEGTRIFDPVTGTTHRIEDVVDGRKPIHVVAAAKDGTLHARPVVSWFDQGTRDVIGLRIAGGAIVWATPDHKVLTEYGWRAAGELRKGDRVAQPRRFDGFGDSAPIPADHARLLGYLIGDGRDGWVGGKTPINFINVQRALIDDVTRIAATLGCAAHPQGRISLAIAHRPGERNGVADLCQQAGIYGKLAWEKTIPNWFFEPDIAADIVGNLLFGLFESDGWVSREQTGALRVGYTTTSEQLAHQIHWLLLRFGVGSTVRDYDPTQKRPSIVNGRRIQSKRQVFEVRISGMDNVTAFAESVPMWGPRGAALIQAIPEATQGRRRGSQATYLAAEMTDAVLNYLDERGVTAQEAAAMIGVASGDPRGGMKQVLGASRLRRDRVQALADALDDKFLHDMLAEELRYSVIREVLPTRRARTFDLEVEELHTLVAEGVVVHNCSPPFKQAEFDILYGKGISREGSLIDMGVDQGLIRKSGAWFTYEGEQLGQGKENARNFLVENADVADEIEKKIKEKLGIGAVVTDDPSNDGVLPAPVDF
Arbovirus inh repeat – second read-out of Arbovirus inh, no call of its own (marks repeat the call); inhibition, %; measured here: 10K subset replicate screen; many hits read low in the repeat;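 first of two repeat runs on a subset; 0% = infected and 100% = uninfected wells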
Numbers without * were called inactive. The list is partial. The share of hits here may be higher or lower than overall.

The first 2 compounds, to show the layout:
What do the screens show for `O=C1NC(=O)C(CCc2ccncc2)(Cc2ccc([N+](=O)[O-])cc2)C(=O)N1`?
Mtb growth: 2%; Arbovirus inh: -10; Mtb betalactam: -6; YopH PTP inh: -33; RecA splice inh: -2.6

What do the screens show for `O=C(Nc1nccs1)c1ccc2nccnc2c1`?
Mtb growth: -6%; Arbovirus inh: -5; Mtb betalactam: 5; YopH PTP inh: -10; RecA splice inh: -0.8

The listing, previewed entries included:
What do the screens show for `O=C1NC(=O)C(CCc2ccncc2)(Cc2ccc([N+](=O)[O-])cc2)C(=O)N1`?
Mtb growth: 2%; Arbovirus inh: -10; Mtb betalactam: -6; YopH PTP inh: -33; RecA splice inh: -2.6

What do the screens show for `O=C(Nc1nccs1)c1ccc2nccnc2c1`?
Mtb growth: -6%; Arbovirus inh: -5; Mtb betalactam: 5; YopH PTP inh: -10; RecA splice inh: -0.8

What do the screens show for `Cc1cc(OC(=O)c2ccc3ccccc3c2)c([N+](=O)[O-])c(=O)[nH]1`?
Mtb growth: 1%; Arbovirus inh: 1; Mtb betalactam: 3; RecA splice inh: -3.7

Results for CN(C)S(=O)(=O)c1cc(NC(=O)Cn2ccsc2=N)ccc1Cl ?
Mtb growth: 2%; Arbovirus inh: 4; Mtb betalactam: 2; RecA splice inh: -0.6

What do the screens show for `O=c1[nH]n2c(=O)c3c([nH]c2c1N=Nc1cccc(Cl)c1)CCCC3`?
Mtb growth: 8%; Arbovirus inh: 40*; Mtb betalactam: 95; YopH PTP inh: 2; RecA splice inh: -3.5

Results for Cc1ccc(N/N=C(/Sc2nnnn2-c2ccccc2)C(=O)c2ccccc2)cc1 ?
Mtb growth: 8%; Arbovirus inh: 11; Mtb betalactam: -7; YopH PTP inh: -22; RecA splice inh: 0.4

What do the screens show for `O=C(C1CC1)N1CCc2[nH]c3ccccc3c2C1`?
Mtb growth: -7%; Arbovirus inh: 5; Mtb betalactam: 5; YopH PTP inh: -20; RecA splice inh: -19

How did COc1ccc(Cn2cccc(NC(=O)Nc3ccc(F)cc3)c2=O)cc1 do in these assays?
Mtb growth: -9%; Arbovirus inh: 9; Mtb betalactam: -4; RecA splice inh: 1.7

Results for COc1ccc(/C=N/Nc2ncnc3c2[nH]c2ccc(C)cc23)c(OC)c1OC ?
Mtb growth: 4%; Mtb betalactam: 22; RecA splice inh: -5.5

What do the screens show for `C=CCn1c(SCC(=O)Nc2ccc(F)cc2)nnc1-c1cnccn1`?
Mtb betalactam: 4; RecA splice inh: -2.6

Arranged by molar mass (low to high): some entries from above.
What do the screens show for `O=C(C1CC1)N1CCc2[nH]c3ccccc3c2C1`?
Mtb growth: -7%; Arbovirus inh: 5; Mtb betalactam: 5; YopH PTP inh: -20; RecA splice inh: -19

What do the screens show for `O=c1[nH]n2c(=O)c3c([nH]c2c1N=Nc1cccc(Cl)c1)CCCC3`?
Mtb growth: 8%; Arbovirus inh: 40*; Mtb betalactam: 95; YopH PTP inh: 2; RecA splice inh: -3.5

What do the screens show for `O=C1NC(=O)C(CCc2ccncc2)(Cc2ccc([N+](=O)[O-])cc2)C(=O)N1`?
Mtb growth: 2%; Arbovirus inh: -10; Mtb betalactam: -6; YopH PTP inh: -33; RecA splice inh: -2.6

More records.
What do the screens show for `CCOC(=O)c1ccc(NC(=S)NCCCN2CCOCC2)cc1`?
Mtb growth: -12%; Arbovirus inh: 12; Mtb betalactam: -4; RecA splice inh: -3.5

How did CCN(CC)C(=O)CSc1ncnc2c1cnn2-c1ccccc1 do in these assays?
Mtb growth: -11%; Arbovirus inh: 3; Mtb betalactam: -1; YopH PTP inh: 4; RecA splice inh: 3.6

Results for COc1ccccc1N(C)S(=O)(=O)c1ccc(C(=O)Nc2ccc(N3CCOCC3)cc2)cc1 ?
Mtb growth: -6%; Arbovirus inh: -3; Mtb betalactam: -11; RecA splice inh: 4.5

Results for CCOC(=O)c1ccc(NC(=O)c2cccc(C)c2[N+](=O)[O-])cc1 ?
Mtb growth: 67%; Arbovirus inh: 4; Mtb betalactam: 0; RecA splice inh: -0.4

What do the screens show for `Cc1cccc(N2CCN(Cc3cnc(Cl)s3)CC2C)c1` (stereo not given)?
Mtb growth: 12%; Arbovirus inh: -4; Mtb betalactam: -8; RecA splice inh: 1.4

Results for O=C(COc1ccc(S(=O)(=O)N2CCOCC2)cc1)NCCc1ccccc1 ?
Mtb betalactam: 4; RecA splice inh: 0.1

How did COc1ccc(-c2cc([C@H]3[C@@H]4C=CCC[C@@]4(C)C(=O)N3Cc3ccccc3)ccc2F)cc1OC do in these assays?
Mtb growth: 0%; Mtb betalactam: -2; RecA splice inh: 19

What do the screens show for `CCC(C)N1CC(=O)N2Cc3[nH]c4ccccc4c3C[C@H]2C1=O` (stereo not given in full)?
Mtb betalactam: -4; RecA splice inh: -4.0

How did CCC(=O)Nc1c(S(=O)(=O)c2ccc(C)cc2)c2nc3ccccc3nc2n1C(C)c1ccccc1 (stereo not given) do in these assays?
Mtb growth: 15%; Arbovirus inh: 11; Mtb betalactam: -1; YopH PTP inh: -11; RecA splice inh: 0.8

What do the screens show for `COc1ccccc1C(=O)Nc1ccccc1C(=O)NCc1ccco1`?
Mtb betalactam: -1; RecA splice inh: 1.7

Results for CC1(C(=O)OCC(=O)Nc2nnc(-c3ccccc3)o2)CC1(Cl)Cl (stereo not given) ?
Mtb betalactam: 96; RecA splice inh: 4.1

What do the screens show for `C=CCn1c(SCc2nc3sc(C(=O)O)c(C)c3c(=O)[nH]2)nnc1-c1ccc(C(C)(C)C)cc1`?
Mtb growth: -13%; Mtb betalactam: -5; RecA splice inh: 1.7

How did COc1cccc(-c2nn(-c3ccccc3)cc2/C=C\C(=O)c2cccs2)c1 do in these assays?
Mtb growth: 4%; Arbovirus inh: -3; Mtb betalactam: 36; YopH PTP inh: -35; RecA splice inh: -1.1

Results for NNC(=O)CSc1nnc(-c2ccccc2)n1-c1ccccc1 ?
Mtb betalactam: -5; RecA splice inh: 3.0

What do the screens show for `O=C(NNc1ccccc1[N+](=O)[O-])Nc1ccc(Cl)c(Cl)c1`?
Mtb growth: inconclusive; Arbovirus inh: -22; Mtb betalactam: 10; YopH PTP inh: -32; RecA splice inh: 2.8

Results for COC(=O)c1ccc2[nH]c3cccc(/C(=C/c4ccccc4)c4ccccc4)c3c2c1 ?
Mtb betalactam: -16; RecA splice inh: 2.0

What do the screens show for `O=C(OCC(=O)C12CC3CC(CC(C3)C1)C2)c1ccc(O)cc1O`?
Mtb betalactam: 36; RecA splice inh: 7.5

How did COCCCNC(=O)CSc1ccsc1[N+](=O)[O-] do in these assays?
Mtb growth: -1%; Arbovirus inh: -6; Mtb betalactam: 3; RecA splice inh: 6.0

Results for COc1ccc(C(=O)Nc2nnc(Cc3ccc(OC)c(OC)c3)s2)cc1 ?
Mtb betalactam: 8; RecA splice inh: -5.6

Results for COC(=O)CNC(=O)c1ccccc1F ?
Mtb growth: -12%; Arbovirus inh: 2; Mtb betalactam: 7; YopH PTP inh: -30; RecA splice inh: -1.2

How did COc1ccc(C(=O)NCC2CCCO2)cc1OC (stereo not given) do in these assays?
Mtb growth: -4%; Mtb betalactam: -2; RecA splice inh: 0.2

How did Cc1cccc(NC(=S)N2CCOCC2)c1C do in these assays?
Mtb growth: -1%; Arbovirus inh: -10; Mtb betalactam: -5; YopH PTP inh: -17; RecA splice inh: -3.3

What do the screens show for `C/C(=N\NC(=O)Cc1ccccc1)c1ccc(Br)s1`?
Mtb betalactam: 6; RecA splice inh: 1.6

What do the screens show for `CC1(c2cccc(Br)c2)NC(=O)NC1=O` (stereo not given)?
Mtb betalactam: 8; RecA splice inh: 2.9

What do the screens show for `O=C(NCc1nc2ccccc2[nH]1)C1=C[C@@H](c2ccc3c(c2)OCO3)C[C@@H](OCc2ccc(CO)cc2)O1`?
Mtb growth: -5%; RecA splice inh: 1.2

Results for CCOC(=O)c1ccc(N2CCOCC2)c(NC(=O)COCC(=O)O)c1 ?
Mtb growth: -7%; Mtb betalactam: -3; RecA splice inh: -1.0

How did CCOc1ncccc1C(=O)OCC(=O)c1c(N)n(C)c(=O)n(C)c1=O do in these assays?
Mtb growth: -2%; Arbovirus inh: 6; Mtb betalactam: 4; YopH PTP inh: -45; RecA splice inh: -0.4

Results for Cc1cc(C(=O)CSc2nc(N)cc(N)n2)c(C)n1CCc1ccc(F)cc1 ?
Mtb growth: -4%; Arbovirus inh: 15; Mtb betalactam: 2; YopH PTP inh: -33; RecA splice inh: 6.2

How did CCOC(=O)c1ccc(NC(=S)N2CCSC2c2ccc(Cl)cc2)cc1 (stereo not given) do in these assays?
Mtb growth: inconclusive; Arbovirus inh: 4; Mtb betalactam: -6; YopH PTP inh: 2; RecA splice inh: 8.4

What do the screens show for `CC1Oc2ccccc2N(CC(=O)NCc2cccs2)C1=O` (stereo not given)?
Mtb growth: -8%; Arbovirus inh: 2; Mtb betalactam: -14; YopH PTP inh: -11; RecA splice inh: 0.1

How did Cc1ccc(C)c(N2C(=O)c3cc(N4CCOCC4)c([N+](=O)[O-])cc3C2=O)c1 do in these assays?
Mtb growth: -4%; Arbovirus inh: -6; Mtb betalactam: 9; YopH PTP inh: -37; RecA splice inh: -2.4

What do the screens show for `COc1ccc(N2C(=O)c3ccccc3NC23CCCCC3)cc1`?
Mtb growth: -8%; Arbovirus inh: 2; Mtb betalactam: 6; YopH PTP inh: -39; RecA splice inh: 2.7; Arbovirus inh repeat: -1

Results for N#Cc1c(N)nc2c(c1-c1ccncc1)CCCCC2 ?
Mtb growth: -5%; Arbovirus inh: -2; Mtb betalactam: inconclusive; YopH PTP inh: -32; RecA splice inh: 1.0

How did Cc1ccc(S(=O)(=O)Nc2ccccc2-c2ccccc2)cc1 do in these assays?
Mtb growth: -9%; Arbovirus inh: -13; Mtb betalactam: -5; YopH PTP inh: -17; RecA splice inh: 9.8

Results for N#Cc1c(NC(=O)C(=O)NCCCN2CCOCC2)sc2c1CCCC2 ?
Mtb betalactam: 0; RecA splice inh: -2.2

How did COc1cccc(/C=C/C(=O)OCC(=O)NCC2CCCO2)c1OC (stereo not given) do in these assays?
Mtb growth: 6%; Arbovirus inh: 16; Mtb betalactam: 4; YopH PTP inh: -6; RecA splice inh: -0.1

Results for CN1c2cccc3cccc(c23)N(C)C1c1cccs1 ?
Mtb growth: 7%; Arbovirus inh: -9; Mtb betalactam: -11; YopH PTP inh: -21; RecA splice inh: -10

Results for O=C(NC(Nc1nc2ccc([N+](=O)[O-])cc2s1)(C(F)(F)F)C(F)(F)F)c1cccnc1 ?
Mtb growth: 6%; Arbovirus inh: -38; Mtb betalactam: 84; YopH PTP inh: -2; RecA splice inh: 1.2

Results for CN(C)C(=O)c1nc2ccc(Cl)cn2c1CNCc1ccccc1OC(F)(F)F ?
Mtb growth: -4%; Arbovirus inh: -3; Mtb betalactam: -12; RecA splice inh: 4.6

Results for COCCN(C(=O)Cc1coc2cc(C)c(C)cc12)c1c(N)n(Cc2ccccc2)c(=O)[nH]c1=O ?
Mtb betalactam: -12; RecA splice inh: -1.9

How did COc1cccc(C2=CC(c3ccc(OC)c(OC)c3)NC(=S)N2)c1 (stereo not given) do in these assays?
Mtb growth: -2%; Mtb betalactam: -8; RecA splice inh: -0.9

Results for CC(C)C[C@H]1C(=O)N2CCC[C@H]2[C@]2(O)O[C@](NC(=O)C3C=C4c5cccc6[nH]c(Br)c(c56)C[C@H]4N(C)C3)(C(C)C)C(=O)N12 (stereo not given in full) ?
Mtb growth: 18%; Mtb betalactam: -6; RecA splice inh: -0.6

How did CC1CCCC(C)N1C(=O)COC(=O)c1ccc2c(c1)OCO2 (stereo not given) do in these assays?
Mtb growth: -2%; Arbovirus inh: -4; Mtb betalactam: -2; YopH PTP inh: -54; RecA splice inh: -0.5

Results for Cn1ccnc1SCc1cn2cc(Br)ccc2n1 ?
Mtb growth: -13%; Arbovirus inh: -1; Mtb betalactam: -15; YopH PTP inh: -43; RecA splice inh: -5.5; Arbovirus inh repeat: 1

What do the screens show for `CCc1cc2c(=O)c(-c3cscn3)coc2cc1O`?
Arbovirus inh: 6; Mtb betalactam: 2; YopH PTP inh: -19; RecA splice inh: -2.1

What do the screens show for `Cc1sc2c(c1C)c(=O)n(-c1ccccc1)c(=O)n2CC(=O)NCC1CCCO1` (stereo not given)?
Mtb growth: -1%; Arbovirus inh: 5; Mtb betalactam: -2; RecA splice inh: -5.2

Results for COc1cc(CNn2cn[nH]c2=S)cc(Cl)c1OCc1ccccc1 ?
Mtb growth: 3%; Arbovirus inh: -2; Mtb betalactam: -1; YopH PTP inh: -42; RecA splice inh: -2.7

How did COc1cccc(-n2cc(CNC(=O)C3CCC(=O)N(C4CC4)C3)cn2)c1 (stereo not given) do in these assays?
Mtb betalactam: 1; RecA splice inh: -1.5

Compound activity as filed in PubChem.
